# Hsc70 ATP site – Hsc70 inhibitors, probe displacement, primary screen, biochemical, fluorescence polarization (AID 568); displacement, % at 20 µM; hits with a dose series show IC50 in µM; 83,000 tested, under 10 active; Hsc70 fluorescence polarization, probe displacement; higher % means a stronger effect; strong numbers were not always called active;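 active = displacement above 50% without optical interference and an IC50 on retest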;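 note: ATPase domain with a fluorescein-tagged ATP probe; 0% = vehicle and 100% = excess ADP; read after one hour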
# WNV protease inh – inhibitors of West Nile virus NS2B-NS3 protease; P06935; WNV NS2B-NS3 protease, fluorogenic substrate Ex360/Em465; active compounds read low; z-score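 (tested at a level between 10 and 100 µM)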; 65,000 tested, 0.18% active;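 active = z-score at -3 or under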;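 note: score is relative to mean and spread of the compound wells of a plate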
# Target sequence (P06935 1371-1501 limits assumed): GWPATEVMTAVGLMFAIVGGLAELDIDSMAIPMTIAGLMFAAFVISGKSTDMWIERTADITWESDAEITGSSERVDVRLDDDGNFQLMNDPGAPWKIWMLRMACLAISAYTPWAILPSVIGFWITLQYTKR
# Target sequence (P06935 1502-1679 limits assumed): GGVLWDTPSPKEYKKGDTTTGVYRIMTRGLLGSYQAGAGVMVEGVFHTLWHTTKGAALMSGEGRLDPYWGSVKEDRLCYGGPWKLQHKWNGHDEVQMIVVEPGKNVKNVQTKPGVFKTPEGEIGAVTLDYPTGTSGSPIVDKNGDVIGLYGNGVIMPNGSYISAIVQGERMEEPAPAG
# MT1-MMP reporter – MT1-MMP gene expression reporter suppression – cell-based, luciferase reporter, luminescence (AID 618); MT1-MMP promoter luciferase reporter cells, luminescence; calls from a first round at 10 µM; hits with a dose series show EC50 in µM; 87,000 tested, 0.62% active;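 active = over half of the reporter light lost at 10 µM or EC50 under 50 µM; inactive = the rest and hits that failed the dose series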;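 note: actives suppress MT1-MMP promoter-driven transcription so potencies describe inhibitors; HT1080 fibrosarcoma cells; overnight exposure; toxic or luciferase-blocking compounds were not removed from the actives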
# Starred values were filed as active, the others as inactive; i = inactive; x = no result given.
SMILES,Hsc70 ATP site,WNV protease inh,MT1-MMP reporter
Cc1ccc(-c2nc3sc4c(c3c(=O)n2N)CC(C)(C)OC4)cc1,-0.4%,x,i
Cc1nc(SCC(=O)Nc2c(C)n(C)n(-c3ccccc3)c2=O)[nH]c(=O)c1Cc1ccccc1,6.0%,-1.18,i
CC(C)(C)c1cc(S(=O)(=O)CCc2ccccn2)cc(C(C)(C)C)c1F,-1.3%,x,i
O=C(COC(=O)Cc1cn2ccsc2n1)NC12CC3CC(CC(C3)C1)C2,7.8%,1.05,i
Fc1ccc(Cc2nnc(-c3cccs3)o2)cc1,5.1%,0.65,i
O=C(CCC1CCCCC1)NCc1ccncc1,2.4%,1.94,i
COc1ccc(OC)c(C(=O)CN2CCN(S(=O)(=O)c3ccc(Br)cc3)CC2)c1,-10.1%,1.55,i
Cn1c2ccc(F)cc2c2ncn(CCN3CCOCC3)c(=O)c21,2.6%,0.06,i
Cc1c(C(=O)NCc2ccccn2)oc2ccc(S(=O)(=O)N3CCOCC3)cc12,11.0%,-0.69,i
O=[N+]([O-])c1cc(S(=O)(=O)Nc2ccccc2)ccc1-n1nnc2ccccc21,0.7%,x,i
Fc1ccc(C(CCCn2nnc(-c3cccnc3)n2)c2ccc(F)cc2)cc1,-0.4%,x,i
COc1ccc(CNC(=O)C(C)N(Cc2ccco2)C(=O)c2snc(C(N)=O)c2N)cc1 (centres undefined),4.9%,-0.47,i
c1ccc(-c2nnc3sc(Cc4cccs4)nn23)cc1,-2.6%,0.01,i
CCCn1c(C2CC(=O)N(c3ccc(C)cc3)C2)nc2ccccc21 (centres undefined),1.7%,x,i
CCCC(C)C(=O)Nc1ccccc1C(=O)OCC (centres undefined),-3.3%,x,i
CCOC(=O)c1cc2c(nc1N)CC(C)(C)OC2,6.6%,x,i
COc1ccc(NC2CC(=O)N(C)C2=O)cc1 (centres undefined),-4.6%,1.92,i
Cc1nc(C)c2c(=O)cc(-c3ccccc3)[nH]c2n1,-0.9%,-0.02,i
CCOc1ccc(CNC(=O)CCn2c(=O)oc3ccccc32)cc1,-3.0%,-0.76,i
Fc1ccc(OCCOCCNCC2CCCO2)cc1 (centres undefined),1.8%,-0.02,i
CS(=O)(=O)Nc1ccc(C(=O)NC2CC3CCC2C3)cc1 (centres undefined),-3.1%,x,i
O=S(=O)(NC1CC1)c1ccc(S(=O)(=O)N2CCCc3ccccc32)cc1,5.3%,0.59,i
C=CCn1c(SCCN2CCOCC2)nc2c1c(=O)[nH]c(=O)n2C,2.0%,0.5,i
Cc1cccc(-n2ncc(C#N)c2N)c1,1.9%,-0.69,i
Cc1ccccc1CN(c1ccc(C(=O)Nc2cccnc2)cc1)S(C)(=O)=O,-0.9%,x,i
Cc1cc(C(=O)OCCO)c(C#N)c(N)n1,-0.4%,3.67,i
COc1cccc(NC(=O)c2ccc(S(=O)(=O)N3CCCCC3)cc2)c1,4.3%,-1.56,i
CC(=N/O)/C(=N\O)c1ccc(C)o1,-1.9%,-0.42,i
CCOC(=O)c1oc2cc(O)ccc2c(=O)c1-c1csc(C)n1,-1.9%,-0.36,i
COc1ccc(N2C(=O)CC(NCc3ccncc3)C2=O)cc1 (centres undefined),5.7%,-0.68,i
CCS(=O)(=O)c1ccc(S(=O)(=O)CC)s1,1.7%,-0.64,i
O=C(O)C1CCCN(S(=O)(=O)c2ccc(F)cc2)C1 (centres undefined),-1.5%,1.8,i
COc1cccc(-c2nn3c(-c4ccco4)nnc3s2)c1,-0.3%,-1.56,i
Cc1ccc(C2C(=O)N(C3CCCC3)CC(=O)N2CC2COc3ccccc3O2)cc1 (centres undefined),-4.0%,0.45,i
Cc1cccc(OCc2nnc(SCC(=O)c3ccccc3)o2)c1,0.9%,0.97,i
CN1CCN(S(=O)(=O)c2ccc(N)cc2)CC1,1.4%,0.59,i
CCCc1cc(Nc2c(C)n(C)n(-c3ccccc3)c2=O)n2c(nc3ccccc32)c1C#N,-9.0%,-1.17,i
Nc1nc(OCC(F)(F)F)cc(Oc2ccccc2F)n1,-7.8%,0.09,i
CCOc1ccccc1CN1CCN(S(C)(=O)=O)CC1,-3.9%,0.67,i
O=C(CCN1CCC(c2ccccc2)C1)c1cccs1 (centres undefined),2.8%,-0.00171,i

# Among those listed so far, these contain an aryl methoxy group.
SMILES,Hsc70 ATP site,WNV protease inh,MT1-MMP reporter
COc1ccc(OC)c(C(=O)CN2CCN(S(=O)(=O)c3ccc(Br)cc3)CC2)c1,-10.1%,1.55,i
COc1ccc(CNC(=O)C(C)N(Cc2ccco2)C(=O)c2snc(C(N)=O)c2N)cc1 (centres undefined),4.9%,-0.47,i
COc1ccc(NC2CC(=O)N(C)C2=O)cc1 (centres undefined),-4.6%,1.92,i
COc1cccc(NC(=O)c2ccc(S(=O)(=O)N3CCCCC3)cc2)c1,4.3%,-1.56,i
COc1ccc(N2C(=O)CC(NCc3ccncc3)C2=O)cc1 (centres undefined),5.7%,-0.68,i
COc1cccc(-c2nn3c(-c4ccco4)nnc3s2)c1,-0.3%,-1.56,i

# Continued.
SMILES,Hsc70 ATP site,WNV protease inh,MT1-MMP reporter
CCN(CC)C(c1ccc(C)cc1)c1nnnn1C1CCCCC1 (centres undefined),-4.0%,-0.32,i
CCOc1cc(C(=O)Nc2ccc(S(=O)(=O)N3CCOCC3)cc2)cc(OCC)c1OCC,-5.2%,-0.46,i
CC(C)(C)c1cc(NS(=O)(=O)c2ccc3c(c2)OCCO3)on1,-1.7%,-0.43,i
CCC(NC(=O)c1ccccc1NC(=O)c1ccccc1)C(=O)O (centres undefined),-4.1%,-0.03,i
CCn1ccc(C(=O)NC2=C(C#N)CCC2)n1,6.5%,x,i
COc1ccccc1NC(=O)Cn1c(=O)oc2ccccc21,-3.3%,-0.27,i
Cc1[nH]c2ccccc2c1C1C(c2ccccc2)=NN=C(C(C)C)N1O (centres undefined),-0.4%,x,i
CC1(C)Cc2c(C#N)c(SCc3ccccc3)nc(N3CCOCC3)c2CO1,2.0%,0.08,i
CC(=O)c1cccc(NC(=O)N2C3CCC2CC(O)(c2cccnc2)C3)c1 (centres undefined),7.2%,-0.43,i
CCOC(=O)c1cnc2c(OC)cccc2c1N1CCN(c2ccccc2OC)CC1,1.1%,0.32,i
CCn1c(=O)c(C(=O)NCCCO)c(O)c2ccccc21,3.3%,-1.99,i
O=C(CSc1nc2ccccc2c(=O)n1Cc1ccco1)N1CCN(c2ccccc2)CC1,-0.8%,-0.68,i
O=C(Cc1ccccc1)Nc1nnc(-c2ccco2)s1,3.1%,-0.66,i
CCCCOc1cccc(C(=O)O)c1,4.1%,0.62,i
CCOC1(NC(=O)c2ccccc2)C(C)=CC(=O)C=C1C,7.2%,0.37,i
CCC(=O)Nc1nc(CC(=O)Nc2ccccc2)cs1,-2.8%,0.51,i
COc1cccc(NC(=O)CSc2nnc(-c3cc(-c4ccccn4)nc4ccccc34)o2)c1,3.4%,-0.53,i
CCNS(=O)(=O)c1cc(S(C)(=O)=O)ccc1Cl,4.0%,-0.18,i
CCN(CC)C1CC(=O)N(c2cccc(C)c2)C1=O (centres undefined),3.9%,0.34,i
CCCOc1ccc(-c2cnc(SCC(N)=O)nc2N)cc1,-9.5%,-0.31,i
CS(=O)(=O)Nc1ccc(C(=O)NC2CCCC2)cc1,4.2%,-0.08,i
CCc1ccc(-c2nn(Cc3ccccc3)cc2/C=C/C(=O)O)cc1,4.5%,x,i
CCC1CCCCN1C(=O)Cn1c(C(=O)OC)cc2ccsc21 (centres undefined),2.9%,0.86,i
O=C(NCC1CCCO1)c1ccc2c(c1)OCO2 (centres undefined),0.2%,-0.82,i
O=C(NC1CC2CCCC(C1)N2C(=O)NC1CCCCC1)c1ccccc1 (centres undefined),-0.2%,-0.45,i
CCN(CC)CCCOC(=O)C1(c2ccccc2)CCCC1,0.8%,x,i
Nc1cc(N)nc(SCC(=O)Nc2ccccc2)n1,-0.2%,x,i
C=CCNc1nnc(SC2CC(=O)N(c3ccc(OC)cc3)C2=O)s1 (centres undefined),1.0%,-1.38,i
CC1(C)CC(=O)C2=C(C1)N(Cc1ccco1)C(=O)C2(O)C(F)(F)F (centres undefined),-6.7%,0.16,i
CCC(C)NC(=O)CC(NS(=O)(=O)c1ccc(C)cc1)c1ccc(OC)cc1 (centres undefined),0.5%,x,i
Cc1ccc(-c2nc3ncccc3o2)cc1NC(=O)Cc1ccc(Cl)cc1,2.2%,-0.88,i
CCOc1ccc(S(=O)(=O)NCC2CCCO2)cc1 (centres undefined),0.0%,x,i
COc1ccc(CCNC(=O)CSc2nnnn2Cc2ccc3c(c2)OCO3)cc1OC,-5.8%,-0.45,i
CCOC(=O)CSc1nc(N)cc(=O)[nH]1,-3.6%,0.5,i
Cc1ccc(CCNc2ccccc2C)cn1,-1.6%,x,i
CCOc1cc(NC(=O)c2ccccn2)c(OCC)cc1NC(=O)CC(C)C,4.2%,-0.21,i
CCOc1ccc(C(=O)/C=C/c2cn(CN3CCN(C)CC3)c3ccccc23)cc1,-6.9%,x,i
O=C(CCc1ccccc1)OCCN1CCOCC1,-7.1%,-0.63,i
COc1ccc(C2=NN(CN3C(=O)C(=O)c4ccccc43)C(c3ccc(C)cc3)C2)cc1 (centres undefined),-3.4%,x,i
CCc1nnc(NC(=O)CSc2nnc(-c3ccccc3NC(=O)c3ccccc3)o2)s1,5.9%,-0.88,i

# Single values from the entries so far.
# WNV protease inh, C=CCNc1nnc(SC2CC(=O)N(c3ccc(OC)cc3)C2=O)s1 (centres undefined) → -1.38
# Hsc70 ATP site, CCOc1cc(NC(=O)c2ccccn2)c(OCC)cc1NC(=O)CC(C)C → 4.2%
# Hsc70 ATP site, Cc1ccc(CCNc2ccccc2C)cn1 → -1.6%
# Hsc70 ATP site, CCOc1ccc(C(=O)/C=C/c2cn(CN3CCN(C)CC3)c3ccccc23)cc1 → -6.9%

# Additional compounds.
SMILES,Hsc70 ATP site,WNV protease inh,MT1-MMP reporter
CCCCCCN=CC1=C(O)CC(C)(C)CC1=O,-3.9%,0.11,i
CCOc1ccc(-c2nc(C)c(C(C)=O)n2O)cc1,-2.6%,x,i
CNCCCC1Sc2ccccc2Oc2ccccc21 (centres undefined),-3.7%,x,i
N#Cc1nc(Cc2ccccc2)oc1N1CCN(c2ccccc2)CC1,0.5%,-0.59,i
CCOC(=O)c1ccc(COC(=O)c2nonc2N)cc1,-5.9%,-0.03,i
Cc1occc1-c1nc(-c2ccccn2)no1,2.6%,-0.91,i
CCCC1O[C@@H]2C[C@H]3[C@@H]4CCC5=CC(=O)C=C[C@]5(C)[C@H]4[C@@H](O)C[C@]3(C)[C@]2(C(=O)CO)O1 (some centres undefined),-8.6%,0.29,i
COc1ccc(CN2C(=O)c3ccccc3C2C(=O)NCc2cccnc2)c(OC)c1 (centres undefined),-2.7%,0.14,i
COc1ccc(C(OC(=O)c2ccco2)C(=O)NCc2ccco2)cc1 (centres undefined),4.1%,1.16,i
CCN(CC)c1ccc(C(=O)n2cnc3ccccc32)cc1,5.3%,-0.06,i
COc1cc(C)ccc1OCCCCN1CC(C)OC(C)C1 (centres undefined),-0.2%,x,i
CCCOC(=O)c1cccc(NC(=O)C(C)(C)C)c1,4.8%,-1,i
CN1CCN(c2ccc(Cl)cc2NC(=O)c2nn(-c3ccccc3)c(=O)c3ccccc23)CC1,5.5%,-0.46,i
CCOc1ccc(N(CC(=O)Nc2ccc(F)c(F)c2)S(=O)(=O)c2c(C)noc2C)cc1,0.2%,0.14,i
COc1ccc(-c2nc(C#N)c(NCc3ccccc3Cl)o2)cc1,0.4%,0.11,i
COCCN1C(=O)c2ccccc2C(C(=O)N2CCN(c3ccccc3)CC2)C1c1ccc(F)cc1 (centres undefined),-1.1%,x,i
Cn1c(=O)[nH]c(=O)c2c1nc(CN1CCN(c3ccccc3F)CC1)n2CCc1ccccc1,-0.5%,-0.31,i
O=C(CN1C2=NCCCN2c2ccccc21)c1ccc(Br)s1,-13.0%,0.38,i
CCOc1ccc(C(=O)N(CN2CCCC2=O)c2ccc(C)cc2)cc1,-2.8%,-0.02,i
CCN(C(=O)CCN1C(=O)c2ccccc2C1=O)C1CCCCC1,5.6%,-1.21,i

# Shown bar-delimited: 3 of the compounds above
Structure | Hsc70 ATP site | WNV protease inh | MT1-MMP reporter
CNCCCC1Sc2ccccc2Oc2ccccc21 (centres undefined) | -3.7% | x | i
N#Cc1nc(Cc2ccccc2)oc1N1CCN(c2ccccc2)CC1 | 0.5% | -0.59 | i
CCOC(=O)c1ccc(COC(=O)c2nonc2N)cc1 | -5.9% | -0.03 | i

# (cont.)
SMILES,Hsc70 ATP site,WNV protease inh,MT1-MMP reporter
COC(=O)c1ccc(N2CCCCC2)c(NS(=O)(=O)c2ccc(C)cc2)c1,2.4%,x,i
O=C(CSc1nc2ccccc2s1)c1cc2ccccc2o1,-6.2%,x,i
CCCn1c(=O)c2ccccc2n2c(SCC(=O)c3cc(C)n(CCOC)c3C)nnc12,0.2%,-0.51,i
Cn1cccc1Cc1nnc(SCC(=O)Nc2ccccc2F)n1CCc1ccccc1,-3.8%,-0.28,i
CCOC(=O)Nc1cc(OC)c(OC)cc1Cc1nccc2cc(OC)c(OC)cc12,8.3%,-0.02,i
O=C(c1ccccc1-c1nc(-c2ccccc2)no1)N1CCOCC1,1.7%,x,i
COC(=O)c1ccc(C(c2c(N)n(Cc3ccccc3)c(=O)n(C)c2=O)N2CCOCC2)cc1 (centres undefined),5.3%,1.82,i
CNC(=O)CSc1nnc(-c2cc3c(C)nn(-c4ccccc4)c3s2)n1C,2.2%,0.00578,i
CNC(=O)c1ccsc1NC(=O)c1ccccc1,-6.3%,-0.29,i
C=CC1=C(C(=O)O)N2C(=O)C(NC(=O)Cc3ccccc3)C2SC1 (centres undefined),-3.2%,x,i
O=C(CN1CCCCC1)NCCNC(=O)CN1CCCCC1,-7.9%,-1.15,i

# Screening results from PubChem BioAssay.
